High-throughput results deposited in PubChem by several laboratories.
RN4220 kill: kills Staphylococcus aureus RN4220 | S. aureus RN4220 growth, OD600, 16 h | inhibition, % (concentration not given with the values) | 330,000 tested, 0.33% active;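 active means z-score of -3 or lower and OD600 up to 0.18 on both plates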;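 further: plate controls were untreated cells for no effect and reference antibiotic for full effect; stock transfer was 100 nL into about 80 µL; one replicate is shown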
PrP 5UTR inh: inhibition of PrP 5' UTR reporter expression; cell-based PrP 5' UTR mRNA reporter, plate reader; inhibition, % (concentration not given with the values); 340,000 tested, 0.35% active; AID 488862;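 active means every replicate at 50% or more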;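 further: 0 = median of the neutral control wells; tested in H4 reporter cells; numbers are from one replicate; inactives centre near -14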
Mtb hypoxia inh: Mtb hypoxia fluorescent reporter inhibition. M. tuberculosis hypoxia-regulated fluorescent reporter, fluorescence. fluorescence inhibition, % (concentration not given with the values). 300,000 tested, 0.1% active;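 active means 35 to 45% if threefold the growth effect, above 45% if 1.5-fold the growth effect; inactive means the rest, general growth blockers included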;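 further: wells of about 50 µL received 100 nL stock; 0% = vehicle wells and 100% = reference inhibitor wells; whole bacteria with a GFP reporter of the hypoxia response; strong numbers were not always called active; many hits fall short of the cut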
ugtP null kill: growth inhibition of S. aureus ugtP deletion strain; S. aureus RN4220 ugtP deletion, OD600 growth, 16 h; some inactives read as strong as hits; growth inhibition, % (no concentration beside the values); 330,000 tested, 0.54% active; AID 1259309;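 active means z-score under -3 and OD600 up to 0.15 on both plates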;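 further: plate controls were untreated wells for no effect and antibiotic for full effect; wells of about 80 µL received 100 nL stock; the first replicate is given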
Autofluor counter: compound fluorescence in toxin protease inhibitor counterscreen | compound autofluorescence counterscreen, microsphere flow cytometry; stronger effect = higher value | fluorescence intensity (no concentration beside the values) | 360,000 tested, 3.1% active | AID 624483;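 active means at least 3 SD above the mean of all compounds, about 16000 in these data; inconclusive means too few beads counted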;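 further: 100 nL of 1 mM stock went into each well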
BJeLR viability: kills HRASV12-expressing BJeLR cells; BJeLR (HRASV12) viability, CellTiter-Glo ATP luminescence, 48 h; reference of the scale not given here; inhibition, % (no concentration beside the values); 300,000 tested, 0.17% active; AID 1554;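 active means replicate mean above 50%; inconclusive means above 50% but judged a plate artefact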;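 further: 50 nL library stock added to about 25 µL; numbers are from one replicate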
Mtb hypoxia inh growth: also measured in Mtb hypoxia inh; calls as there; growth inhibition, %; measured here: M. tuberculosis growth (absorbance);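 0% = vehicle and 100% = reference antibiotic; read after six days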
Active calls of the source: *; u = inconclusive; x = no result given.

Fields: RN4220 kill	PrP 5UTR inh	Mtb hypoxia inh	Mtb hypoxia inh growth	ugtP null kill	Autofluor counter	BJeLR viability
Cc1ccc(S(=O)(=O)N2CCCCC2C(=O)Nc2ccc(N(C)C)cc2)cc1 (configuration not stated)
→ -0.6	-23.1	2.7	3.4	1.6	u	x
CCCCOc1ccc(C(=O)NCC(=O)NCc2ccccn2)cc1
→ -0.7	-1.4	-10.6	0.5	-4.6	3976	-4.7
CCOCCCn1c(=O)c(NC(=O)c2ccc(OCC)cc2)c2n(c1=S)CCCCC2
→ -0.3	10.7	10.4	7.8	0.6	4245	-8.7
COc1ccc(CCc2ccnc3ccccc23)cc1
→ 11.1	-12.8	9.6	5.7	22.7	3727	x
CCn1nc(C)c(CN2CCC(C(=O)Nc3cccc(-c4cccc(Cl)c4)c3)CC2)c1C
→ -6.2	-12.0	-3.3	12.8	-17.2	5430	-0.8
Cc1cnc(C(=O)NC2CC(C)(C)Cc3c2cnn3-c2ccccc2)cn1 (configuration not stated)
→ 0.1	-20.3	4.9	14.1	2.6	5285	-2.5
CCN1CCCC1CNC(=O)CS(=O)(=O)Cc1nc(-c2ccccc2C)oc1C (configuration not stated)
→ -10.9	-15.4	2.7	13.6	-2.2	5331	-2.5
COc1ccccc1NC(=O)COc1ccc(Br)cc1CO
→ 2.2	0.0	2.6	8.6	-1.2	9061	4.3
Cc1cc(C)cc(NC(=O)Nc2ccccc2N2CCCCC2)c1
→ 1.0	-15.1	17.9	6.0	9.9	4345	-0.9
CC1CCCN(S(=O)(=O)c2ccc3c(c2)c(=O)nc2ccc(Cl)cn23)C1 (configuration not stated)
→ 2.8	-3.1	15.9	0.1	4.8	6061	7.1
O=c1c2cc(Br)ccc2nc(-c2cccc(C(F)(F)F)c2)n1O
→ 28.2	-1.7	x	x	11.6	2370	0.1
CCOC(=O)c1c(NC(=O)CSC(=S)N(C)C)sc(C)c1C
→ -0.9	-14.2	8.6	17.0	20.1	2225	-2.8
O=S(=O)(/N=C(/Nc1ccccc1)C(F)(F)F)c1ccccc1
→ x	-16.3	x	x	x	2448	-1.7
Cn1c(=O)oc2cc(S(=O)(=O)NCc3ccco3)ccc21
→ 0.6	-8.8	2.7	13.2	-3.4	4388	-17.9
CSc1ccccc1C(=O)NC1CCCN(c2ccc(C(F)(F)F)cn2)C1 (configuration not stated)
→ -1.1	-0.1	9.6	6.2	4.6	5341	3.2
O=C(COC(=O)C1CCN(S(=O)(=O)c2ccccc2)CC1)NCCc1ccccc1
→ 1.4	-21.6	-11.9	8.6	-7.9	8631	x
COc1ccccc1CN(C)C(=O)c1cccc(S(=O)(=O)N2CCN(Cc3ccccc3)CC2)c1
→ 4.0	-24.5	-1.1	-9.3	7.3	x	2.1
Cc1ccccc1-n1c(=O)/c(=C\c2ccco2)s/c1=C(/C#N)C(=O)Nc1ccccc1
→ x	-5.9	x	x	x	20678*	-0.6
O=C(Cc1cccs1)N/N=C/C=C/c1ccco1
→ x	-35.0	x	x	x	1937	-4.6
CS(=O)(=O)c1ccc(-n2nnc3ccccc32)c([N+](=O)[O-])c1
→ 6.3	-4.2	-13.1	1.1	1.1	6056	-6.4
COc1ccc(C(=O)Nc2nc3c(s2)CCCC3)cc1S(=O)(=O)N1CCCc2ccccc21
→ 2.4	5.0	5.7	-3.5	12.9	9333	20.8
COc1ccc(NS(=O)(=O)c2cccc(C(=O)NCC(c3cccs3)N3CCOCC3)c2)cc1 (configuration not stated)
→ 0.3	-5.6	0.1	-1.3	4.1	3406	x
Cc1ccc(NC(=O)c2cccc3c2C(=O)N(C2CCCCC2)C3)c(Cl)c1
→ -1.0	-1.4	7.2	5.7	-13.1	5059	1.1
CCN1/C(=C2\C(=O)N(C)C(=S)N2C)C=Cc2cc(OC)ccc21
→ 1.0	-9.8	12.4	-0.9	10.5	2548	3.7
CCOc1ccc(S(=O)(=O)NCC(=O)N(C)Cc2cccnc2)cc1
→ 4.7	-15.9	-0.2	-2.0	2.4	3272	1.1
CCOc1ccc(CSC2=NCCN2)cc1Cl
→ 4.5	24.5	6.4	8.6	-3.1	3575	0.8
CCc1cccc(C)c1N1C(=O)CN(Cc2ccccc2)C1=S
→ 7.0	-9.0	-4.9	-16.4	4.6	3713	3.0
COc1ccc(CNC(=O)c2cc3ccccc3oc2=O)cc1
→ -1.0	x	-1.6	-4.9	-2.8	3739	-12.4
O=C(Cc1ccc([N+](=O)[O-])cc1)Nc1ccon1
→ 0.9	-11.5	11.4	8.8	5.2	6628	3.6
CC(=NOC(=O)c1ccccc1)c1c(C)nc2cc(C)ccn12
→ 5.7	x	18.8	15.1	9.6	x	x
CC(CN1C(C)CCCC1C)OC(=O)c1ccc(F)cc1 (configuration not stated)
→ -0.5	-17.6	13.6	-2.0	0.4	3432	-3.3
CN(CC(=O)N1CCCCCC1)S(=O)(=O)c1cccc2cccnc12
→ 4.0	-11.8	x	x	5.7	5307	-1.1
O=C(NNC(=O)c1cccnc1SCc1cccc([N+](=O)[O-])c1)c1ccccn1
→ 18.5	38.8	5.0	-2.1	-3.1	2162	32.3
CNc1cc(NS(=O)(=O)c2ccc(N)cc2)nc(NC)n1
→ 5.4	-18.5	7.3	-4.8	2.4	4582	x
Cc1ccc(CN(C)C(=O)C2CCC(=O)N(CCc3ccccc3)C2)o1 (configuration not stated)
→ x	-17.8	x	x	x	5996	1.6
O=C(CSCc1cccc(Br)c1)N1CCOCC1
→ 2.0	-21.9	6.4	16.7	2.3	23815*	-4.2
CCN(CC)c1ccc(C(=O)NNC(=O)CNC(=O)c2cccs2)cc1
→ -4.1	-8.6	-2.3	-4.6	0.1	x	x
CCCc1nc2ccccc2n1CCc1ccccc1
→ 8.0	-24.3	3.5	0.5	3.3	2279	7.4
COC(/C=C/Nc1ccc(Cl)cc1)=C(C#N)C#N
→ 2.9	-12.4	-6.2	-5.4	4.1	4823	-3.7
O=[N+]([O-])c1cc(C=Nc2ccc3ccccc3c2)ccc1Br
→ 5.6	-16.1	6.5	-5.0	2.4	2493	-1.9

An excerpt from above in order of SMILES length, largest number first.
Fields: RN4220 kill	PrP 5UTR inh	Mtb hypoxia inh	Mtb hypoxia inh growth	ugtP null kill	Autofluor counter	BJeLR viability
CCN(CC)c1ccc(C(=O)NNC(=O)CNC(=O)c2cccs2)cc1
→ -4.1	-8.6	-2.3	-4.6	0.1	x	x
CCc1cccc(C)c1N1C(=O)CN(Cc2ccccc2)C1=S
→ 7.0	-9.0	-4.9	-16.4	4.6	3713	3.0
COc1ccc(CNC(=O)c2cc3ccccc3oc2=O)cc1
→ -1.0	x	-1.6	-4.9	-2.8	3739	-12.4
CCCc1nc2ccccc2n1CCc1ccccc1
→ 8.0	-24.3	3.5	0.5	3.3	2279	7.4

(more compounds)
Fields: RN4220 kill	PrP 5UTR inh	Mtb hypoxia inh	Mtb hypoxia inh growth	ugtP null kill	Autofluor counter	BJeLR viability
O=C(COc1coc(CN2CCN(c3ccc(F)cc3)CC2)cc1=O)NCC1CCCO1 (configuration not stated)
→ 2.9	-24.8	4.9	3.9	11.7	5773	4.9
Brc1ccc(-c2nnc3ccc(Nc4ccccc4)nn23)cc1
→ 3.8	x	9.2	-0.3	0.9	x	9.4
CC1CCN(C(=O)CCCOc2cc(=O)n(C)c3ccccc23)CC1
→ 3.2	-25.4	6.6	12.8	-0.5	20059*	2.6
NC(=O)Nc1ccc(C(=O)OCC(=O)Nc2ccc(Cl)cn2)cc1
→ -10.4	1.8	10.1	7.6	7.7	4148	-1.9
O=[N+]([O-])c1ccc2c(c1)C(N1CCOCC1)/C(=C/COc1ccc3ccccc3c1Br)O2 (configuration not stated)
→ -19.9	7.8	x	x	-1.3	2897	-6.7
CC1C(=O)Nc2ccccc2N1C(=O)c1ccc(Cl)cc1 (configuration not stated)
→ 5.2	-17.3	4.5	2.3	3.4	3094	9.1
COc1ccc(OC(C)C(=O)N(C)Cc2nc(-c3cccc(C)c3)no2)cc1 (configuration not stated)
→ 9.1	-32.4	15.0	-0.3	7.9	3571	6.5
CN(c1ccccc1)S(=O)(=O)c1ccc(C(=O)N2CCc3ccccc3C2)cc1
→ 15.0	-4.9	-1.1	-5.1	-4.3	2973	-15.6
COc1ccc(-n2c(O)c(C(C)=NCc3ccc4c(c3)OCO4)c(=O)[nH]c2=O)cc1
→ 4.4	-32.1	17.3	4.5	-1.8	u	1.6
O=C1CC(c2ccccc2)=C(c2ccccc2)C1c1ccccc1 (configuration not stated)
→ -7.1	-23.3	4.8	5.2	19.9	3462	x
CCN(CC)C(=O)Oc1ccc2cc(Br)ccc2c1
→ 4.6	-56.9	18.0	13.5	21.6	2422	6.0
CC(C)CN1CCC(=O)N(C(COc2ccccc2)c2ccccc2)CC1 (configuration not stated)
→ 3.2	x	6.9	10.5	4.4	x	x
COC(=O)Cn1ccc2cc(S(=O)(=O)N3CCCCCC3)ccc21
→ 3.1	-12.4	4.9	12.7	-3.4	5640	0.3
COc1c(O)ccc(/C=N\NC(=O)c2ccc3c(c2)OCO3)c1[N+](=O)[O-]
→ x	-22.8	x	x	x	3321	6.3
CCc1nc(NCc2ccco2)c2oc3ccccc3c2n1
→ 6.9	-0.9	13.3	8.5	-19.8	3149	4.6
Cc1ccc(NC(=O)c2ccc(OC(=O)COc3cccc(Cl)c3)cc2)cc1
→ 5.9	-65.4	-0.1	9.1	8.1	2595	14.4
CCN1CCN(c2ccc(S(=O)(=O)N3CCCCC3)cc2NC(=O)c2cccc(F)c2)CC1
→ 2.7	-4.4	7.4	-6.9	2.9	u	-19.2
COc1c(O)c(O)c2oc(-c3ccccc3)cc(=O)c2c1OC
→ 2.9	-3.0	x	x	0.6	4319	-6.5
CCCN(CC(=O)Nc1ccccc1C)C(=O)c1ccc(N2CCCCCC2)c([N+](=O)[O-])c1
→ -5.0	-19.9	2.7	4.4	-3.0	5357	-14.1
CCC[C@@H](CN1CCC[C@H]1CN1C(N)=NC[C@H]1CC(C)C)N1C[C@@H]([C@H](C)CC)N(CCc2ccc(Cl)c(Cl)c2)C1=N
→ 100.2*	22.1	x	x	100.1*	3126	x
O=C(NCc1cccnc1)Nc1cccc(Cl)c1Cl
→ 2.8	-10.3	0.3	-3.4	0.8	4701	-4.4
COc1ccc(C(=O)O/N=C(\N)c2ccccc2)cc1
→ x	-0.4	x	x	x	3892	-9.2
Nc1ccnc(=O)[nH]1
→ 2.4	-20.7	-1.6	3.5	-2.9	4464	-16.5
COC(=O)C1CC(=NNS(=O)(=O)c2ccc(C)cc2)CS1 (configuration not stated)
→ -0.4	x	6.4	-0.6	2.5	x	x
Cc1cccc(N/C(=N\S(=O)(=O)c2ccccc2)C(F)(F)F)c1
→ x	-13.1	x	x	x	2710	2.3
COc1ccc(OC)c(NC(=O)Nc2cc(C(=O)O)ccc2C)c1
→ 0.5	-28.0	5.0	0.0	7.2	2520	-7.9
Cc1ccc(C(=O)N2CCN(c3ccccn3)CC2)cc1Cl
→ 1.5	-31.5	15.2	12.9	1.6	3889	-5.2
Cc1ccc(CNC(=O)CCCC(=O)c2ccccc2)cc1
→ 3.5	x	0.2	3.7	-2.8	3319	-0.7
O=c1[nH]n(-c2ccc(Cl)cc2)c2ncccc12
→ 7.2	-17.1	-0.8	1.3	1.8	4374	1.2
COc1ccccc1C(=O)Nc1nc(N)n(-c2ccccc2)n1
→ 0.9	-23.1	x	x	-2.7	4962	-8.6
CC(=O)NC(Cc1ccccc1)C(=O)Oc1ccc2ccccc2c1 (configuration not stated)
→ 4.2	-2.4	11.7	10.3	6.1	3036	x
O=C(CSc1nnc(Nc2ccccc2)s1)NC1CC1
→ 3.1	-14.3	-1.0	0.1	-2.5	8620	x
COc1ccc(/C=N/NC(=O)CCc2n[nH]c(=O)[nH]c2=O)cc1O
→ x	-9.1	x	x	x	2011	-13.3
CC(C)OCCCn1c(SCC(=O)N2CCCC2=O)nc2ccccc2c1=O
→ 2.0	-24.2	11.2	6.9	-1.6	5676	7.1
CC1CN(C(C)CO)C(=O)c2cccc(NS(=O)(=O)c3ccc(F)cc3)c2OC1CN(C)S(=O)(=O)c1ccccc1 (configuration not stated)
→ 11.2	x	7.7	4.9	6.2	x	x
NC(=O)SCC(=O)Nc1cccc(Cl)c1
→ 1.3	-24.9	0.4	9.4	73.0	2832	12.5

Outcome played no part in choosing rows; any-hit rate near 4%.
